Screening results as filed in PubChem.
Cruzain inh Det – inhibitors of Trypanosoma cruzi cruzain with detergent; P25779; purified cruzain, Z-FR-AMC fluorescence, 0.01% Triton; Potency, µM, for inactives: max response, negative = inhibition, most hits filed as inhibitors; hit rate 0.43% among 200,000; AID 1478;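 also: plate controls were neutral wells for no effect and buffer without enzyme for full effect; nearly all actives have a fitted effect of over 40% in size; top concentration of the series not given in the record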
Target sequence (P25779 123-467 limits assumed): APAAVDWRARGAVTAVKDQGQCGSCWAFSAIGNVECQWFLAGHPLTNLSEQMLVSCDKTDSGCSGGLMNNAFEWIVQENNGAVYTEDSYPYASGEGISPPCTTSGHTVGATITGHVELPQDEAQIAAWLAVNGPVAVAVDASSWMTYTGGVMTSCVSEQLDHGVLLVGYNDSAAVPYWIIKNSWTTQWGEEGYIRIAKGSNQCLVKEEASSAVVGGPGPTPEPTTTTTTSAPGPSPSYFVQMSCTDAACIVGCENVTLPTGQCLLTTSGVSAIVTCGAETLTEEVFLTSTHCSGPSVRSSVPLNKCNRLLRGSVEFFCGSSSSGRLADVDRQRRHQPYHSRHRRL
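Read-out: AMC fluorescence (360 nm excitation, 450 nm emission), four reads over 2 min, first-to-third difference used. Conditions: cruzain 1.5 nM, Z-FR-AMC 2 uM, pH 5.5 acetate, 5 mM DTT, 0.01% Triton X-100.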
StopGo reporter – lowers the luciferase signal of an FMDV 2A StopGo reporter; human cells with a luciferase reporter of 2A StopGo recoding; control for the full effect not named in the record; hit rate 1.2% among 410,000; Potency, µM (series often up to 57.9 µM), inactives show at the highest dose signal change, negative = less light; AID 1159524; active = well fitted falling curve with a large enough effect; inconclusive = small, poorly fitted or top-dose-only effect; inactive = no such curve, though single readings can be large or run the other way; tested in HEK293T cells; also: % is scaled to controls: 0 for no effect and ±100 for the full control effect; nearly all actives have a fitted effect of over 45% in size; luciferase light after 4 h
LASV entry inh – blocks Lassa virus binding to or entry into cells | Lassa virus pseudotype entry inhibition, cell reporter; control for the full effect not named in the record | Potency, µM (highest dose often 37.9 µM), for inactives: at the top dose activity change, negative = inhibition, actives largely listed as inhibitors | hit rate 1.2% among 300,000 | AID 540256; active means well fitted inhibition curve with a large enough effect; inconclusive means small, poorly fitted or top-dose-only effect, or effect the other way; inactive means flat fitted curve, though single readings scatter; tested in HEK293 cells; also: % is scaled to controls: 0 for no effect and ±100 for the full control effect; nearly all actives have a fitted effect of over 50% in size; luciferase read-out
RE007 growth inh – less growth of the S. pombe RE007 Vpr strain. S. pombe RE007 Vpr strain, BacTiter-Glo ATP luminescence, 24 h; control for the full effect not named in the record. hit rate 0.21% among 360,000. Potency, µM (top dose mostly 92.2 µM), inactives show at the highest dose activity change, negative = less growth; active = well fitted falling curve with a large enough effect; inconclusive = small, poorly fitted or top-dose-only effect; inactive = no such curve, though single readings can be large or run the other way;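 also: % is scaled to controls: 0 for no effect and ±100 for the full control effect; nearly all actives have a fitted effect of over 50% in size; the assay follows cell death caused by Vpr and the record does not say whether a fall means rescue or toxicity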
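Fission yeast strain RE007, carrying one chromosomally integrated HIV-1 vpr copy, was seeded at OD 0.01 in PMG+AL medium with 23 nL pinned compound. After 24 h at 30 °C and 99% humidity, viability was read by BacTiter-Glo luminescence.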
Cruzain noTriton – cruzain (T. cruzi) inhibition without detergent; P25779; AID 1476; purified cruzain, Z-FR-AMC fluorescence, no detergent; Potency, µM, for inactives: max response, negative = inhibition, actives largely listed as inhibitors; hit rate 2.3% among 200,000;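 also: plate controls were enzyme without inhibitor for no effect and buffer without enzyme for full effect; nearly all actives have a fitted effect of over 40% in size; top concentration of the series not given in the record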
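Purified cruzain at 1.5 nM, pre-incubated 15 min with compound at room temperature in 100 mM sodium acetate pH 5.5, 5 mM DTT, 0.00005% Triton X-100. Reaction started with 2 uM Z-FR-AMC; AMC fluorescence increase over 60 s gives rate.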
MARV entry inh – blocks Marburg virus binding to or entry into cells; Marburg virus pseudotyped entry inhibition, cell reporter; control for the full effect not named in the record; about a third of the inactives were read at about 46 µM; Potency, µM (series often up to 37.8 µM), for the others: at the highest dose activity change, negative = inhibition, most hits filed as inhibitors; hit rate 1.8% among 300,000; AID 540276; active = well fitted inhibition curve with a large enough effect; inconclusive = small, poorly fitted or top-dose-only effect, or effect the other way; inactive = flat fitted curve, though single readings scatter; tested in HEK293 cells; about a fifth of its hits are not listed in these tables; also: % is scaled to controls: 0 for no effect and ±100 for the full control effect; luciferase read-out
NS1 inh – influenza NS1 inhibition; S. cerevisiae slowed by influenza A NS1, growth recovery by OD600; Potency, µM (highest dose often 46.1 µM), without a hit: at the top dose activity, positive = more growth; hit rate 0.4% among 270,000; AID 2326; active means well fitted rising curve with a large enough effect; inconclusive means small, poorly fitted or top-dose-only effect; inactive means no such curve, though single readings can be large or run the other way; also: nearly all actives have a fitted effect of over 50% in size
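Read-out: OD600 growth recovery of NS1-expressing budding yeast. Cells grown overnight at 30C in -URA glucose medium, washed, resuspended and diluted 1:100 in 2% galactose assay medium, pH 6.0. Same strain lacking NS1 served as positive control.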
SARS PLP yeast – SARS-CoV PLP inhibition in yeast; AID 485353; hit rate 0.19% among 330,000; Potency, µM (series often up to 32.9 µM), without a hit: at the highest dose activity, positive = growth rescue; S. cerevisiae expressing SARS-CoV PLpro, growth rescue; control for the full effect not named in the record; active means well fitted rising curve with a large enough effect; inconclusive means small, poorly fitted or top-dose-only effect; inactive means no such curve, though single readings can be large or run the other way; also: 0% is about no effect; nearly all actives have a fitted effect of over 55% in size; growth read by luminescence after 48 h
Starred values were filed as active, the others as inactive; ? = inconclusive; · = not tested or not shown; & = joins results of further samples; [ ] = another dose, or the depositor's remark. Unless noted, calls follow the shape of the dose curve; as a rule, active = well fitted curve in the direction sought with a large enough effect; inconclusive = small, poorly fitted or top-dose-only effect, or another doubt; inactive = no such curve, though single readings can be large; an effect the other way counts as inactive or inconclusive. Potency is read from the fitted curve at half-maximal effect. This is a random part of the collection, and some 4.8% of all compounds hit somewhere here.

SMILES	Cruzain inh Det	StopGo reporter	LASV entry inh	RE007 growth inh	Cruzain noTriton	MARV entry inh	NS1 inh	SARS PLP yeast
O=C(NCC(F)(F)F)N1CCOCC1	5.7%	-19%	13%	1%	-4%	17%[46.1 µM]	7%	-9%
CC1=CC(C)[C@H](/C=N/n2c(=O)[nH]c3c([nH]c4ccc(C)cc43)c2=O)C(C)C1 (stereo not given in full)	·	-30%	?	2%	·	?	·	9%
CCOC(=O)c1cc(-c2ccc(OC)cc2)nc2c1c(C)nn2CCC#N	-9.4%	-22%	-2%	-14%	?	-19%	2%	-8%
COc1cccc(-c2cc(C(F)(F)F)nc(N3CCOCC3)n2)c1	-15%	-9%	?	-6%	22%	?	-41%	-20%
O=C(CN1C(=O)c2ccccc2C1=O)Nc1cccc(S(=O)(=O)Nc2ccccc2Cl)c1	-1.4%	27%	2%	17%	9%	?	-15%	9%
Cc1ccc(C(=O)N/N=C\c2c(C)nn(-c3ccccc3)c2Cl)cn1	0.5%	6%	10%	-22%	4%	-8%	-9%	-22%
CCOC(=O)c1cc(C(=O)OCC)c2cc(Br)ccc2n1	-6.2%	-2%	20%	-7%	?	-11%	-17%	13%
CCOC(=O)c1ccc(N2C(=O)CC(N(C)Cc3ccccc3)C2=O)cc1 (stereo not given)	2.2%	3%	-2%	13µM*	5%	15%	-89%	-27%
Cc1ccc(C(=O)Nc2nnc(Cc3ccccc3)s2)cc1	·	16%	·	11%	·	·	3%	0%
CC(C)(C)n1cnc2cc(NC(=O)c3ccc(Cl)cc3)ccc21	·	34%[activator]	?	-5%	·	?	-21%	1%
CC1Sc2ccc(Cl)cc2-c2nc(N)ncc21 (stereo not given)	·	-12%	5%	27%	·	-3%[46.1 µM]	·	-18%
CC(C)Nc1ncnc2c1cnn2Cc1ccc(Cl)cc1	·	?	·	6%	·	·	-3%	0%
CCOc1cccc2cc(-c3cn4c(n3)sc3cc(C)ccc34)c(=O)oc12	2.7%	28%	5%[46.1 µM]	·	0%	·	·	·
CCc1ccc(NC2=NC(C(=O)NC3CCCCC3)CC(=O)N2)cc1 (stereo not given)	-2.1%	-7%	0%	26%	3%	0%	-1%	4%
COC(=O)c1nnn(-c2ccc(Cl)c(Cl)c2)c1C(=O)OC	·	2%	3%	6%	·	?	·	-3%
COc1cccc(-n2c(-c3ccco3)nc3nc4ccccc4nc32)c1	-5.4%	-4%	-18%	-13%	-1%	30%	6%	-5%
CCN(Cc1ccccc1)C(=O)CN1C(=O)c2ccccc2C1=O	·	-1%	-1%[46.1 µM]	4%	·	5%[46.1 µM]	0%	2%
c1ccc(CSc2ncnc3c2cnn3-c2ccccc2)cc1	-3.9%	7%	12%	-3%	-11%	23%	1%	0%
Cc1cc2ccccc2c(=O)n1CC(=O)NCC(=O)N1CCN(c2cccc(Cl)c2)CC1	-5.2%	-27%	5%	-12%	-6%	4%&11%	-3%	1%
COC(=O)C1CCN(C(=O)COC(=O)Cn2cnnn2)CC1	1.7%	9%	-2%	-4%	0%	20%	3%	4%
O=C(NC(Cc1ccccc1)C(=O)O)/C(=C/c1ccc([N+](=O)[O-])cc1)NC(=O)c1ccccc1 (stereo not given)	·	1%	-1%	-12%	·	16%[46.1 µM]	16%	?
O=C(OCc1nc2ccccc2s1)c1cc2ccccc2oc1=O	-5.4%	·	·	·	2%	·	-7%	15%
COc1ccc(S(=O)(=O)Cc2ccc(C(=O)NCc3ccccc3OC)o2)cc1	·	-3%	·	-5%	·	·	20%	-16%
COc1ccccc1OCCCCCNCCO	0.0%	·	4%	-4%	12%	5%	-11%	-5%
CC1CCCN(CC(=O)Nc2ccc(S(=O)(=O)N3CCCCC3)cc2)C1 (stereo not given)	0.7%	·	-10%	9%	9%	-17%	15%	18%
CCOC(=O)c1ccc(NC(=O)c2cn(-c3ccccc3)nc2-c2ccc(Br)cc2)cc1	-0.7%	-20%	12%[46.1 µM]	·	-4%	·	·	·
COC(=O)c1ccsc1NC(=O)CCS(=O)(=O)c1ccccc1	·	8%	·	-2%	·	·	9%	-1%
CC1(NC(=O)c2cc(S(=O)(=O)N3CCCCC3)ccc2Cl)CCS(=O)(=O)C1 (stereo not given)	0.5%	0%	13%	-16%	4%	-1%	5%	18%
O=C1CCCC(O)=C1Sc1ccccc1C(=O)O	·	1%	·	0%	·	·	-2%	1%
CCCSC(=O)N(CC)CC(=O)Nc1c(CC)cccc1CC	4.5%	-15%	0%	1%	2%	-16%	7%	7%
COc1ccc(S(=O)(=O)Cc2ccc(C(=O)N3CCN(c4cccc(C)c4C)CC3)o2)cc1	-9.4%	?	·	-18%	?	·	-24%	-10%
COC(=O)c1ccc(CNC(=O)COC(=O)CC23CC4CC(CC(Br)(C4)C2)C3)cc1	-6.6%	-13%	29%	32%	?	-11%	17%	-10%
c1ccc2cc3c(NCCN4CCOCC4)ccnc3cc2c1	28µM*	-15%	?	-17%	25µM*	3.7µM*	?	-6%
COc1ccc(CNC(=O)C(C)Sc2ccc(C)cc2)cc1 (stereo not given)	·	-4%	-22%[46.1 µM]	3%	·	15%[46.1 µM]	1%	-1%
O=C(CSc1nc2ccccc2s1)NNC(=O)Nc1ccc(Cl)c(Cl)c1	-8.0%	4%	-15%	15%	?	2%[46.1 µM]	10%	4%
CCCCNC(=O)n1c(SC)nc2ccccc21	-1.3%	?	-7%	-6%	-1%	1%[46.1 µM]	-2%	1%
CC(CC(=O)NC1CCCC1)c1ccccc1 (stereo not given)	6.4%	-2%	3%	?	-1%	13%	5%	3%
COc1cccc(CNC(=O)Cn2nc(C)n3c(cc4cc(C)ccc43)c2=O)c1OC	-0.2%	4%	·	·	23%	-10%[46.1 µM]	·	·
Cc1noc(C)c1CSCC(=O)N(C)CC(=O)Nc1ccc(F)c(F)c1F	·	0%	?	-10%	·	-1%	·	2%
Cc1cc(C)n(C(=O)COc2ccc([N+](=O)[O-])cc2)n1	1.4%	-5%	4%	-3%	-5%	?	10%	0%
CCOc1ccccc1NC(=O)CN(c1ccc(OC)cc1OC)S(=O)(=O)c1ccccc1[N+](=O)[O-]	·	13%	1%[46.1 µM]	2%	·	10µM*	7%	1%
Cc1cccc(OC(C)C(=O)N2CCN(Cc3ccc4c(c3)OCO4)CC2)c1 (stereo not given)	·	?	-5%	-12%	·	-3%	-12%	-7%
CN(C)/C=N/c1ncc(C(=O)c2ccc(-c3ccccc3)cc2)s1	·	-30%	?	19%	·	?	·	-17%
O=C(CSCc1ccc([N+](=O)[O-])cc1)NC1CC2CCC1C2 (stereo not given)	-1.5%	?	10%	3%	6%	-6%	5%	21%
Cc1ccc(-n2c3nc(=O)[nH]c(=O)c-3cc3cc([N+](=O)[O-])ccc32)cc1	-10%	32µM*	?	-24%	26%	?	-10%	3%
CCOc1cc(C(=O)Nc2c3c(nn2C(C)(C)C)CS(=O)C3)cc(OCC)c1OCC (stereo not given)	0.0%	14%	-10%	-7%	?	-17%[46.1 µM]	-18%	20%
O=C(O)CSc1cccc2cccnc12	-0.9%&-1.6%	-10%&-13%	0%	4%&-4%	4%&4%	-4%&-4%	5%&-6%	3%&-4%
CCOC(=O)/C(=C/c1ccccc1)NC(=O)c1ccco1	4.1%	-9%	23%	-4%	-9%	-7%	15%	20%
COc1cc(C2NC(=O)NC(C)=C2C(=O)OCc2ccccc2)ccc1O (stereo not given)	-0.8%	-20%	15%	-4%	3%	?	17%	8%
CCOC(=O)c1ccc[n+](CC(=O)Nc2cc(C(F)(F)F)ccc2Cl)c1	·	-15%	18%[46.1 µM]	-16%	·	?	14%	1%
COCCn1c(COc2ccccc2)nnc1SCC(N)=O	-5.2%	-1%	-1%	-14%	-8%	10%	-19%	-2%
CC(=O)c1c(N2CCCC2)nc(=S)n(-c2ccccc2)c1C	-0.7%	·	1%	-21%	-29%	-24%	-2%	4%
N#C/C(=C/c1ccc(-c2ccccc2)o1)c1nc(-c2cccs2)cs1	-10%	40%[activator]	8%	-2%	7.9µM*	?	19%	-2%
Cc1cc(C)nc(Nc2ccc(F)cc2)n1	·	15%	?	-8%	·	14%	-27%	-2%
COc1cc2c(c(OC)c1)C(c1ccncc1)CC(=O)N2 (stereo not given)	-5.3%	-7%	·	-17%	-4%	·	10%	-1%
Cc1c(C(=O)Nc2ccc(Br)cc2F)oc2ccc(S(=O)(=O)N3CCCCC3)cc12	0.9%	?	5%[46.1 µM]	·	12%	·	·	·
CC(C)(C)OC(=O)NCCc1nnc(S(=O)(=O)Cc2ccc(Cl)cc2Cl)o1	-0.4%	?	-19%	13%	-9%	?	-67%	-1%
Cc1ccc(Nc2ccc(N3CCN(C(=O)c4ccc([N+](=O)[O-])cc4Cl)CC3)nn2)cc1	-28%	?	?	·	?	·	·	·
CNC(=O)c1ccsc1NC(=O)CCS(=O)(=O)c1ccc(Cl)cc1	·	-16%	6%[46.1 µM]	-27%	·	-17%	·	0%
Cc1c(C=O)c2ccccc2n1CC(=O)NCc1ccc2c(c1)OCO2	·	-10%	8%	25%	·	-2%[46.1 µM]	2%	1%

(continued)
SMILES	Cruzain inh Det	StopGo reporter	LASV entry inh	RE007 growth inh	Cruzain noTriton	MARV entry inh	NS1 inh	SARS PLP yeast
COc1cccc(C(=O)Nc2c(F)c(F)c(F)c(F)c2F)c1	0.1%	11%	10%	-19%	-4%	8%	-12%	-4%
CC(=O)C1=C(C)OC(N)=C(C(=O)OC(C)C)C12C(=O)Nc1ccccc12 (stereo not given)	5.1%	·	14%	0%	16%	9%	-5%	0%
CC1CC1C(=O)Nc1ccc(-c2ccccc2)cc1 (stereo not given)	-3.0%	61%[activator]	?	14%	?	-2%	-7%	-30%
Cc1cccc(OCc2nc3ccccc3n2C)c1	·	0%	·	28%	·	·	-44%	-1%
